# Screens as filed in PubChem.
# Rango release inh: inhibitors of RanGTP-induced Rango-importin beta complex dissociation. Potency, µM (highest dose often 46.1 µM), inactives show top-dose activity change, negative = inhibition. Biochemical FRET Rango-importin beta, RanGTP-induced dissociation. O95149+P62826. actives 0.071% (n = 340,000); active means falling FRET ratio curve, often poorly fitted, with flat reads before Ran was added; inconclusive means other falling curves, or compound fluorescence or quenching; inactive means flat or rising ratio curve;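 further: potency means the concentration at half of the fitted maximal effect; % of control where 0% means no effect; nearly all actives have a fitted effect of over 45% in size; -100% = wells without RanGTP and RCC1; the record marks most hits as doubtful in a second field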
#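 Rango/importin beta premix (0.1/0.25 uM final), PBS + 1 mM DTT + 0.02% Tween-20 + 0.1% BSA; cpd 5 min RT; FRET pre-read; + RanGTP-RCC1 (0.6 uM Ran, 2 mM GTP, 0.2 uM RCC1); 45 min RT; FRET post-read, ex 430, em 486/530 nm.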
# GLA inh pH 4.5: alpha-galactosidase A (human) inhibition, pH 4.5 | P06280 | purified enzyme, 4-MU-alpha-Gal fluorescence, pH 4.5 | activity change, negative = inhibition, % at 105 µM | 230,000 tested, under 10 active | AID 1467; inconclusive = small, poorly fitted or top-dose-only inhibition, or a rising curve; inactive = flat fitted curve, though single readings scatter; no compound was filed as active;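 further: 0% = full activity with enzyme and -100% = basal without enzyme; dose as in the result columns while the protocol names 77 µM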
# Rango complex inh: Rango-importin beta binding inhibition. Q14974. Rango CFP/YFP FRET sensor + importin beta, 45 min. Potency, µM (top dose mostly 92.2 µM), without a hit: top-dose inhibition of complex formation. actives 0.031% (n = 340,000); active = rising FRET ratio curve, often small or poorly fitted; inconclusive = mostly compound fluorescence or quenching in the first reads; inactive = flat curves in all reads;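 further: potency means the concentration at half of the fitted maximal effect; 0% = DMSO wells and 100% = buffer wells lacking importin beta; nearly all actives have a fitted effect of over 15% in size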
# Target sequence (Q14974 whole entry, looked up): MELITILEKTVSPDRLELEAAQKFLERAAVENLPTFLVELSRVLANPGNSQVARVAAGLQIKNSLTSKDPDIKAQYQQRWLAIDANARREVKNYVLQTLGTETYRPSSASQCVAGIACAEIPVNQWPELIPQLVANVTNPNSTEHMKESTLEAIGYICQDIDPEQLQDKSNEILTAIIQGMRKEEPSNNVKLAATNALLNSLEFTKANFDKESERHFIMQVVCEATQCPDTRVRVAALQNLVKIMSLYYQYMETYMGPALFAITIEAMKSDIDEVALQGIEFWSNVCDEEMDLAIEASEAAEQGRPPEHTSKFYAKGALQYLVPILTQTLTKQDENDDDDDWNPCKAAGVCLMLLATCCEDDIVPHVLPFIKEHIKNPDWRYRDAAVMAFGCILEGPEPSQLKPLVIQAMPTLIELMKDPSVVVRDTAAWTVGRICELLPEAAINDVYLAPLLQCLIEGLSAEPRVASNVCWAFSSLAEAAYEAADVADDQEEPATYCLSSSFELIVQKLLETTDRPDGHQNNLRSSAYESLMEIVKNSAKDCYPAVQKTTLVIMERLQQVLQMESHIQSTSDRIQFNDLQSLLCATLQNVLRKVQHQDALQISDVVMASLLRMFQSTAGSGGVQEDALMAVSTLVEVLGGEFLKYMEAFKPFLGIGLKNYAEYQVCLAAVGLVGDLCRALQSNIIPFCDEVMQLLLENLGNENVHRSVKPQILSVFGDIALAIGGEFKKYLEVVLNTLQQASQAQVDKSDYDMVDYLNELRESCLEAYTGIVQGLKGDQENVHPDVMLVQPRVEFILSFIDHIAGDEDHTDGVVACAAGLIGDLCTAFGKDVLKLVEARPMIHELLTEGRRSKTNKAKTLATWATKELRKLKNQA
#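 FRET biosensor Rango (snurportin 1 IBB between N-terminal EYFP and C-terminal Cerulean), 50 nM in PBS/1 mM DTT/0.02% Tween-20/0.1% BSA, preincubated 5 min RT with compound; 0.125 microM importin beta added, 45 min RT, CFP/YFP FRET ratio read.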
# miR-21 FLuc: miR-21 reporter, rising signal; Potency, µM (titrated, usually from 38.3 µM), for inactives: at the top dose reporter change, positive = more light; HeLa miR-21 FLuc reporter, luciferase, 48 h; 340,000 tested, under 10 active; active = well fitted rising curve with a large enough effect; inconclusive = small, poorly fitted or top-dose-only effect; inactive = no such curve, though single readings can be large or run the other way;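 further: % of control where 0% means no effect; miR-21 action dims this reporter so a rising signal means less miR-21 action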
#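 HeLa cells stably expressing CMV-driven firefly luciferase with a downstream miR-21 binding sequence, endogenously expressing miR-21, were treated with titrations (up to about 40uM final) for 48 hours at 37 degree Celsius. Luciferase luminescence was read after lysis.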
# Numbers without * were called inactive; ? = inconclusive; . = no result given; & = joins results of further samples; [ ] = dose if it differs, or a comment.
mol | Rango release inh | miR-21 FLuc | GLA inh pH 4.5 | Rango complex inh
COc1cc(CNC(C)C23CC4CC(CC(C4)C2)C3)cc(OC)c1OC (configuration not stated) | -8.3% | 5.0% | . | 1.8%
CCNc1nc(NCC)n2c(SC(C(=O)Nc3cc(Cl)cc(Cl)c3)c3ccccc3)nnc2n1 (configuration not stated) | -0.4% | -0.5% | -5.0 | -5.8%
O=C1CC(Sc2ncccc2C(=O)O)C(=O)N1 (configuration not stated) | 5.6% | -0.2% | -2.6 | 5.4%
COc1ccc(NC(=O)c2cc(-c3ccco3)on2)c(OC)c1 | 2.5% | -11.5% | . | 2.7%
CCOC(=O)c1ccc(N(C(=O)c2cnccn2)C(C(=O)NC2CCCCC2)c2cn(C)nc2C)cc1 (configuration not stated) | 17.4% | 0.3% | -1.7 | 3.3%
COc1ccccc1-n1c(C)cc(C=O)c1C | 5.6% | -1.5% | 10.6 | 1.6%
COc1ccc(C(=O)Nc2nnc(S(=O)(=O)N3CCCCCC3)s2)cc1OC | -1.7% | -2.2%&-35.0% | . | -3.9%
CC(=O)N1CCc2cc(S(=O)(=O)CCC(=O)NCCc3ccc(C)cc3)ccc21 | 1.5% | 2.5% | . | -2.2%
CCCC1(C(=O)OC)NC(c2ccco2)C2C(=O)N(c3ccc(C)cc3)C(=O)C21 (configuration not stated) | -10.7% | -4.2% | 4.6 | -0.7%
CC1=C(C)CC(C(=O)NNC(=O)c2csc(C)c2C)C(C(=O)O)C1 (configuration not stated) | 4.3% | -19.8% | -3.2 | -0.7%
Brc1ccc(-c2nc(-c3cccnc3)no2)o1 | -11.2% | -38.3% | 2.5 | -3.1%
COc1ccc(CC(=O)Nc2ccc(/C(C)=N\NC(=O)c3ccc(Br)o3)cc2)cc1 | 0.4% | -31.9% | . | -0.7%
Cc1cc[n+](-c2[nH]c(=O)sc2/C=N/NC([S-])=Nc2ccccc2)cc1C | -6.1% | -10.2% | -11.4 | ?
Cc1nc2c(ccc3nc(NC(=O)c4ccc5c(c4)OCCO5)sc32)s1 | -11.6% | 14.9% | -4.9 | -0.5%
Cc1ccccc1/C=N/n1c(-c2cc(-c3ccccc3)n[nH]2)n[nH]c1=S | -9.4% | -30.3% | -7.5 | -1.0%
CC12CCC(=O)N1C(C(=O)Nc1cc(Cl)ccc1N1CCOCC1)CS2 (configuration not stated) | 1.7% | -1.8% | . | -0.2%
CCCCC[n+]1cccc2c3ccccc3ccc21 | -6.3% | ? | ? | 0.8%
CSCC[C@H](NC(=O)[C@@H]1Cc2c([nH]c3ccccc23)C2c3ccccc3C(=O)N21)C(=O)NCC1CCCO1 (some centres not stated) | -0.6% | -0.8% | . | ?
COc1ccccc1NC(=O)C/C(C)=N/NC(=O)C12CC3CC(CC(C3)C1)C2 | 0.3% | -37.8% | -8.1 | 4.1%
O=C(NCc1ccccc1Cl)c1nnc(CS(=O)(=O)c2ccccc2)o1 | 5.8% | -7.3% | . | -0.7%
CN1C(=O)N(C)C(c2cccc([N+](=O)[O-])c2)C2=C1CCCC2=O (configuration not stated) | -6.2% | -3.4% | . | -0.9%
Cc1ccnc(NS(=O)(=O)c2ccc(NC(=O)COc3ccccc3)cc2)n1 | -14.4% | -5.7% | -1.7 | 0.5%
O=[N+]([O-])c1ccc(N/N=C\c2cccnc2)nc1 | -11.4% | 4.5% | 2.5 | -1.3%
Cc1ccc(S(=O)(=O)N2CCCCC2)cc1C(=O)c1nccn1C | -14.4% | -3.4% | 5.3 | 4.7%
c1cc(-c2nnc3n2CCC3)[nH]n1 | 1.4% | -2.9% | -10.3 | 0.9%
COc1ccc(S(=O)(=O)Nc2ccc(Cc3ccncc3)cc2)cc1C | -4.4% | 9.1% | . | -2.8%
Nc1cc(=O)[nH]c(N2CCN(c3ccccc3)CC2)n1 | -2.7% | 6.3% | 0.7 | -0.5%
Cc1ccccc1C(=O)N/N=C1/SCC(=O)N1Cc1ccccc1 | 21.2% | -1.2% | 6.4 | 3.1%
Cc1cccc2sc(NC(=O)CN(C)S(=O)(=O)c3cccs3)nc12 | 1.1% | 7.9% | -6.7 | -0.3%
Cc1ccc(CNC(=O)Cc2ccc(-n3c(=O)[nH]c4ccsc4c3=O)cc2)cc1 | -0.4% | 9.8% | 1.8 | -0.3%
O=C(COC(=O)c1ccco1)NC1CCCc2ccccc21 (configuration not stated) | -8.8% | . | . | -1.5%
CCOC(=O)N1CCN(C(=O)c2ccc(N(Cc3ccc(Cl)cc3)S(C)(=O)=O)cc2)CC1 | 25.4% | 21.4% | . | 2.8%
Cn1c(=O)c2c(O)c(Cc3ccccc3)c(=O)n(C)c2n(C)c1=O | 0.4% | 1.4% | 0.2 | -5.8%
S=C1NCCNC(=S)NCCOCCOCCN1 | 14.3% | -0.8% | 4.5 | -5.8%
O=[N+]([O-])c1cccc(S(=O)(=O)Nc2ccc(-c3ccc(N4CCCC4)nn3)cc2)c1 | 3.9% | . | . | 2.4%
COc1cc(=O)[nH]c(SC(C)C(=O)Nc2cc(C)on2)n1 (configuration not stated) | -2.3% | 0.1% | . | -2.2%

# A portion from the list above, as a working copy:
mol | Rango release inh | miR-21 FLuc | GLA inh pH 4.5 | Rango complex inh
CN1C(=O)N(C)C(c2cccc([N+](=O)[O-])c2)C2=C1CCCC2=O (configuration not stated) | -6.2% | -3.4% | . | -0.9%
Cc1ccnc(NS(=O)(=O)c2ccc(NC(=O)COc3ccccc3)cc2)n1 | -14.4% | -5.7% | -1.7 | 0.5%
O=[N+]([O-])c1ccc(N/N=C\c2cccnc2)nc1 | -11.4% | 4.5% | 2.5 | -1.3%
Cc1ccc(S(=O)(=O)N2CCCCC2)cc1C(=O)c1nccn1C | -14.4% | -3.4% | 5.3 | 4.7%
c1cc(-c2nnc3n2CCC3)[nH]n1 | 1.4% | -2.9% | -10.3 | 0.9%
COc1ccc(S(=O)(=O)Nc2ccc(Cc3ccncc3)cc2)cc1C | -4.4% | 9.1% | . | -2.8%
Nc1cc(=O)[nH]c(N2CCN(c3ccccc3)CC2)n1 | -2.7% | 6.3% | 0.7 | -0.5%
Cc1ccccc1C(=O)N/N=C1/SCC(=O)N1Cc1ccccc1 | 21.2% | -1.2% | 6.4 | 3.1%
Cc1cccc2sc(NC(=O)CN(C)S(=O)(=O)c3cccs3)nc12 | 1.1% | 7.9% | -6.7 | -0.3%
Cc1ccc(CNC(=O)Cc2ccc(-n3c(=O)[nH]c4ccsc4c3=O)cc2)cc1 | -0.4% | 9.8% | 1.8 | -0.3%
O=C(COC(=O)c1ccco1)NC1CCCc2ccccc21 (configuration not stated) | -8.8% | . | . | -1.5%
CCOC(=O)N1CCN(C(=O)c2ccc(N(Cc3ccc(Cl)cc3)S(C)(=O)=O)cc2)CC1 | 25.4% | 21.4% | . | 2.8%
Cn1c(=O)c2c(O)c(Cc3ccccc3)c(=O)n(C)c2n(C)c1=O | 0.4% | 1.4% | 0.2 | -5.8%

# Remaining list, next part:
mol | Rango release inh | miR-21 FLuc | GLA inh pH 4.5 | Rango complex inh
CCOc1ccc(NC(=O)C2CCN(S(=O)(=O)c3c(C)noc3C)CC2)cc1 | -12.3% | -2.4% | . | 0.4%
Cc1cccc(Cn2c(C)c(C)c3cc(C(=O)NCCN4CCOCC4)ccc32)c1 | 2.2% | -12.7% | . | -0.6%
CN(C)c1ccc(-c2n(C)c3ccccc3[n+]2C)cc1 | -14.9% | 25.9% | 0.9 | -1.0%
CC1CC(C)CN(C(=O)c2cc3ccccc3o2)C1 (configuration not stated) | 5.4% | . | . | -4.1%
c1ccc(-c2nccc(-c3ccc(-n4cnc5ccccc54)cc3)n2)nc1 | 0.7% | -7.3% | -17.9 | -1.0%
CCCCC(C(=O)NC1CCCC1)N(C(=O)c1snc(C(N)=O)c1N)c1ccc(OCC)cc1 (configuration not stated) | 4.3% | 2.1% | . | 3.9%
COc1ccccc1NC(=S)N(Cc1ccco1)Cc1cc2cc(C)c(C)cc2[nH]c1=O | -29.3% | 27.9% | -9.4 | ?
CC(Sc1n[nH]c(N)n1)C(=O)Nc1cccc(S(=O)(=O)N2CCOCC2)c1 (configuration not stated) | -1.1% | 1.2% | 6.4 | ?
C=CCOc1ccc(C2/C(=C(/O)c3ccc(OC)cc3)C(=O)C(=O)N2CCN2CCNCC2)cc1 (configuration not stated) | 4.0% | -3.5% | . | -0.2%
CCOc1ccc2[nH]c(=O)c(CN(CCCN3CCOCC3)C(=O)Nc3ccc(F)cc3)cc2c1 | 3.9% | . | . | 1.5%
O=c1nc(N2CCOCC2)ccn1Cc1ccc(Br)cc1 | 3.7% | -8.1% | -7.3 | -0.2%
COc1cc(/C=N/NC(=O)C(C)Nc2n[nH]c(=O)[nH]c2=O)cc(OC)c1O (configuration not stated) | 12.8% | -8.2% | -0.2 | 1.5%
COc1ccc(NC(=O)CC2(CC(=O)O)CCCC2)cn1 | -14.3% | 0.7% | -0.1 | 0.3%
O=C(C(c1ccccc1)C(O)(c1ccccc1)c1ccccc1)N1CCOCC1 (configuration not stated) | 5.6% | . | . | 1.1%
COC(=O)c1ccc(COC(=O)CCc2nc(-c3ccccc3)c(-c3ccccc3)o2)cc1 | -6.1% | 3.3% | 3.0 | -2.8%
CCOC(=O)COn1c(=O)c(C)[n+]([O-])c2ccccc21 | -0.2% | -2.2% | 4.0 | ?
CCCCN1C(=O)/C(=C/C=C2/C=Cc3ccccc3N2CC)SC1=S | -4.3% | -13.7% | 8.4 | -4.7%
COc1ccc(NC(=O)C2CCCN(S(=O)(=O)c3cccc4nonc34)C2)cc1 (configuration not stated) | -1.8% | -1.3% | 5.2 | 0.0%
COc1ccc(N2CCN(C(=O)Cn3c(=O)[nH]c4ccsc4c3=O)CC2)cc1 | 15.8% | 2.7% | -2.1 | 0.5%
Oc1ccc(C(=S)N2CCCC2)cc1 | 17.2% | 1.1% | . | 0.0%
CCS(=O)(=O)Nc1cc(C(=O)O)ccc1C | -4.7% | -1.7% | 2.9 | 3.8%
CC(=O)NC(CC(=O)OCC(=O)c1ccc(NC(=O)CC(C)C)cc1)c1ccccc1 (configuration not stated) | 1.4% | . | . | -1.1%
COCCn1c(SCC(=O)N2CCCc3ccccc32)nnc1-c1ccco1 | 4.0% | -3.8% | -10.1 | 2.2%
O=C(O)CC1NCCc2ccccc21 (configuration not stated) | -0.4% | -9.1% | 4.0 | -2.8%
Cn1c(NC(=O)Cc2ccc(F)cc2)cc(=O)n(C)c1=O | -9.2% | -7.7% | -14.5 | 0.2%
COc1ccc(-c2cc(C(=O)NCCCn3ccnc3)no2)cc1 | 2.3% | -25.1% | 1.0 | -0.5%
CCOc1ccc(Cc2onc3c2C(=O)CC(C)(C)C3)cc1OCC | -6.9% | -0.8% | -0.5 | 0.3%
Cc1nc(N2CCC(C)CC2)c2c(C)c(C(=O)Nc3ccc(C)c(F)c3)sc2n1 | -11.1% | 3.3% | -1.9[21.1 µM] | 0.0%
CCCc1ccc(S(=O)(=O)N/N=C\c2ccc3c(c2)OCO3)cc1 | 4.0% | -2.2% | . | 5.4%
CCOC(=O)c1c(C)[nH]c(C2=NNC(=Nc3ccccc3OC)SC2)c1C | -13.1% | 7.5% | -3.8 | -1.9%
COc1ccc(NC(=O)NCc2ccc3c(c2)OCO3)cc1OC | 27.2% | -5.3% | . | -0.1%
CO[C@H]1C=CO[C@@]2(C)Oc3c(C)c(O)c4c(O)c(c5c(c4c3C2=O)NC2(CCN(CC(C)C)CC2)N=5)=NC(=O)C(C)=CC=C[C@H](C)[C@H](O)[C@@H](C)[C@@H](O)[C@@H](C)[C@H](OC(C)=O)[C@@H]1C | . | -22.6% | -14.0 | .
CCCc1cc(=O)[nH]c(SCc2ccc(C#N)cc2)n1 | 0.6% | 1.0% | -7.3 | -0.1%
CCc1c(C)nc(SC)n(CC#N)c1=O | -16.6% | -9.1% | -0.2 | -1.5%

# These rows are one share of the data; count on the stated rates, not on these rows.
